Bioassay records as filed in PubChem BioAssay.
RGS16-Gao = modulators of RGS16 binding to Galphao, primary screen, biochemical, human proteins, multiplexed bead flow cytometry. Regulator of G-protein signaling 16 (Homo sapiens) + Guanine nucleotide-binding protein …. bead-based flow cytometry RGS16-Galphao binding, fluorescence; actives lie on both sides. binding response (% of control), % at 10 µM. hit rate 0.38% among 220,000. AID 1441, 2008;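 active = below 25% or above 175%, edge rows of some plates excepted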;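 also: Galphao activated by GDP with aluminum fluoride before binding; 100% = wells without compound and 0% = beads without RGS; some results beyond the cut were filed as inactive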
HSV replic up = enhancers of HSV replication in host cells, fold increase, host cell viability. HSV replication augmentation in cells. maximum fold increase. hit rate 0.005% among 220,000. AID 1956, 2009;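 active = peak rise of 1.5-fold or more in the series; tested in PC3 cells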;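 also: first round at 10 µM; read as green reporter fluorescence; hits show the peak of a series up to 25 µM; 1 = signal of infected wells without compound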
Insulin prom inh = inhibitors of insulin promoter-driven GFP, primary screen, imaging, TRM-6 cells (human fetal islet line), eGFP reporter, cell count | reporter expression induced with tamoxifen | inhibition, % at 2 µM | hit rate 0.9% among 130,000;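 active = inhibition above the mean plus 3 SD, with well images judged a real hit on visual review, cut at about 60% in these data, passing the limit was not always enough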
GALR2 ag = GALR2 receptor agonists, primary screen, cell-based; activation, %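 (tested at 5 µM)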; AID 803, 2007; GALR2-expressing cells, agonist activation read-out; Galanin receptor type 2 (Homo sapiens), O43603; hit rate 0.48% among 140,000;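 active = above mean plus 3 SD of all compounds, about 5% in these data, not always enough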;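 also: 0% = vehicle buffer wells and 100% = reference agonist at full effect; tested in CHO reporter cells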
PKD1 inh = inhibitors of human PKD1 kinase, biochemical, fluorescence polarization; PKD1 kinase fluorescence polarization assay; inhibition, %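 (about 10 µM by stock and volumes)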; hit rate 0.056% among 200,000; AID 797, 2007;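 active = inhibition of 50% or more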;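 also: controls were vehicle for no effect and a reference inhibitor for full effect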
Target sequence (Q15139 whole entry, looked up): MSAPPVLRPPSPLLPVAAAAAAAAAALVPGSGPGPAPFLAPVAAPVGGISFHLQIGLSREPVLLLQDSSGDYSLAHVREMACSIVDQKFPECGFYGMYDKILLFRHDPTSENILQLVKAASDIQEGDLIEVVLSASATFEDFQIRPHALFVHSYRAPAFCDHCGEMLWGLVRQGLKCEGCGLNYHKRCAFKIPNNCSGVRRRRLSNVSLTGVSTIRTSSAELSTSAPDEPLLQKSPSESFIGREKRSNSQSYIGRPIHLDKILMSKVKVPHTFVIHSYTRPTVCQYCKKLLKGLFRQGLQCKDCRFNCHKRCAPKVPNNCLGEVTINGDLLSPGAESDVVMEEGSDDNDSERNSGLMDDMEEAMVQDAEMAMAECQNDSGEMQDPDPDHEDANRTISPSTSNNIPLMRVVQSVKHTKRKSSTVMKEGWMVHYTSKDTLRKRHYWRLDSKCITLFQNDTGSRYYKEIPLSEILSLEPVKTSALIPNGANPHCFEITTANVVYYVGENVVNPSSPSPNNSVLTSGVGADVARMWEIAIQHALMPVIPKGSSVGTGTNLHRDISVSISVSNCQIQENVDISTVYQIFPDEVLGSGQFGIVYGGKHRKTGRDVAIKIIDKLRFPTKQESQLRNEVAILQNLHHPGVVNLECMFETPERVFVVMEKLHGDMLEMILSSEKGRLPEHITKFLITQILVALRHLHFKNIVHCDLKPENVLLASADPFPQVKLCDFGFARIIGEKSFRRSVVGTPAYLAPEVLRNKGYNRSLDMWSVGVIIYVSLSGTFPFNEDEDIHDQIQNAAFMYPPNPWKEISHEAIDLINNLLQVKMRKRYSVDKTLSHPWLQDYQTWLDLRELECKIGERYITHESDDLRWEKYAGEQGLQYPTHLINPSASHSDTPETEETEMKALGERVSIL
Insulin prom inh cell count = further read-out of Insulin prom inh, marked with its call; normalized cell count, %; measured here: cell count, toxicity; reference of the scale not given here;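 cells exposed to compound for 48 h; stained nuclei by imaging scaled within each plate; lower means fewer cells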
HSV replic up primary fold = also measured in HSV replic up; calls as there; fold increase; compound at 10 µM; measured here: primary screen fold increase 10 uM; tested in PC3 cells;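 GFP signal in the first replicate; 1 = infected wells without compound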
Numbers without * were called inactive; i = inactive; nt = no result given.

Preview, 10 compounds:
smiles	RGS16-Gao	HSV replic up	HSV replic up primary fold	Insulin prom inh	Insulin prom inh cell count	GALR2 ag	PKD1 inh
Cc1ccc(C(=O)N/C(=C\c2cn(-c3ccccc3)nc2-c2ccccc2)C(=O)N2CCOCC2)cc1	100.8	i	0.82	23.3	77.8	0.2	-9.9
Cc1ccc(C)c(N2CCN(C(=O)CCNC(=O)Cn3ccc4ccccc4c3=O)CC2)c1	102.6	i	0.83	-7.1	86.0	-1.4	8.4
COc1cccc(NC(=O)c2oc3ccc(S(=O)(=O)N4CCOCC4)cc3c2C)c1	101.1	i	0.85	nt	nt	nt	-7.3
Fc1cccc2sc(Nc3nnc(-c4ccco4)o3)nc12	101.3	i	1.16	30.2	130.5	-1.6	-10.0
COC(=O)c1sc2ccccc2c1NC(=O)c1ccc(S(=O)(=O)N2CCCC(C)C2)cc1 (configuration not stated)	102.7	i	1.03	nt	nt	-2.0	0.6
Cc1cc(N/N=C/c2ccc(Cl)cc2)nc(NCc2ccccc2)n1	100.6	i	0.9	nt	nt	-0.3	2.2
O=C(Nc1ccccc1)N1CCCC(c2nc(-c3ccc(F)cc3)no2)C1 (configuration not stated)	106.5	i	0.91	-28.2	196.2	-0.9	-1.0
O=C(COC(=O)/C=C/c1ccc([N+](=O)[O-])cc1)NC(c1ccccc1)c1ccccc1	97.4	i	0.84	-87.5	126.9	-0.6	-14.6
CN(Cc1ccsc1)C(=O)CCc1nnc(Cc2c[nH]c3ccccc23)o1	114.6	i	0.96	26.7	89.6	nt	-0.7
O=C(COc1ccc(Cl)cc1)NNC(=O)CSc1nncs1	96.8	i	0.96	nt	nt	nt	0.0

Main list, from the start:
smiles	RGS16-Gao	HSV replic up	HSV replic up primary fold	Insulin prom inh	Insulin prom inh cell count	GALR2 ag	PKD1 inh
Cc1ccc(C(=O)N/C(=C\c2cn(-c3ccccc3)nc2-c2ccccc2)C(=O)N2CCOCC2)cc1	100.8	i	0.82	23.3	77.8	0.2	-9.9
Cc1ccc(C)c(N2CCN(C(=O)CCNC(=O)Cn3ccc4ccccc4c3=O)CC2)c1	102.6	i	0.83	-7.1	86.0	-1.4	8.4
COc1cccc(NC(=O)c2oc3ccc(S(=O)(=O)N4CCOCC4)cc3c2C)c1	101.1	i	0.85	nt	nt	nt	-7.3
Fc1cccc2sc(Nc3nnc(-c4ccco4)o3)nc12	101.3	i	1.16	30.2	130.5	-1.6	-10.0
COC(=O)c1sc2ccccc2c1NC(=O)c1ccc(S(=O)(=O)N2CCCC(C)C2)cc1 (configuration not stated)	102.7	i	1.03	nt	nt	-2.0	0.6
Cc1cc(N/N=C/c2ccc(Cl)cc2)nc(NCc2ccccc2)n1	100.6	i	0.9	nt	nt	-0.3	2.2
O=C(Nc1ccccc1)N1CCCC(c2nc(-c3ccc(F)cc3)no2)C1 (configuration not stated)	106.5	i	0.91	-28.2	196.2	-0.9	-1.0
O=C(COC(=O)/C=C/c1ccc([N+](=O)[O-])cc1)NC(c1ccccc1)c1ccccc1	97.4	i	0.84	-87.5	126.9	-0.6	-14.6
CN(Cc1ccsc1)C(=O)CCc1nnc(Cc2c[nH]c3ccccc23)o1	114.6	i	0.96	26.7	89.6	nt	-0.7
O=C(COc1ccc(Cl)cc1)NNC(=O)CSc1nncs1	96.8	i	0.96	nt	nt	nt	0.0
O=C(Cn1nnc2ccccc21)c1ccccc1	103.4	i	1.07	-46.7	93.0	-2.0	4.0
COc1ccc(Cc2nnc(NC(=O)c3cc(OC)c(OC)c(OC)c3)s2)cc1OC	109.4	i	0.9	-71.4	91.2	nt	-8.6
O=C(CCCN1C(=O)/C(=C/c2cccs2)SC1=S)Nc1ccc(C(=O)O)cc1	108.2	i	0.83	nt	nt	nt	-1.7
CCCOc1ccc(CCC(=O)O)cc1	106.9	i	1.02	nt	nt	nt	-0.5
CCOC(=O)c1cnc2ncnn2c1N	95.0	i	0.95	nt	nt	nt	-8.2
Cc1cccc(-n2c(N)cc(=O)nc2SCC(=O)Nc2ccccc2)c1	97.5	i	0.89	-42.9	50.0	-1.6	2.4
CS(=O)(=O)N(CC(=O)Nc1cccc(Cl)c1Cl)c1ccccc1	94.4	i	1.06	-21.6	66.2	-2.9	7.2
COc1ccc(-n2c(COc3ccc(Cl)cc3)nnc2SCc2ccc(C#N)cc2)cc1	101.6	i	1.21	-5.7	75.7	1.1	1.2
Cc1ccc(-c2csc(NC(=O)c3ccc(S(=O)(=O)N4CCc5ccccc54)cc3)n2)cc1	109.6	nt	nt	-26.8	104.5	-0.1	-4.5
O=C(Nc1cc(S(=O)(=O)N2CCOCC2)ccc1N1CCCC1)C1CC1	106.5	i	1	nt	nt	nt	0.1
CSc1ccc(NC(=O)Nc2ccc(C(=O)NCC(=O)O)cc2)cc1	105.8	i	1.12	nt	nt	nt	nt
Cc1c(N2C(=O)SC(CC(=O)O)C2=O)c(=O)n(-c2ccccc2)n1C (configuration not stated)	96.0	i	1.01	0.0	147.9	-2.9	7.6
CC(=O)NC1=NN(C(C)=O)C(c2sccc2C)S1 (configuration not stated)	111.4	i	0.86	37.9	129.0	-1.3	-4.3
O=C(Nc1nnc(SCc2ccc(F)cc2)s1)c1ccc2c(c1)C(=O)N(c1ccccc1Cl)C2=O	103.3	i	1.12	nt	nt	nt	3.3
COc1ccc(C2CC(=O)Nc3n[nH]c(-c4ccccc4)c32)cc1OC (configuration not stated)	98.0	i	0.96	nt	nt	nt	8.3
CCSc1nnc(NC(=O)C(NC(=O)c2ccc(Cl)cc2)C(C)C)s1 (configuration not stated)	103.7	i	1	14.3	182.2	-0.3	-8.6
CCSc1cc(N2CCCC2)nc(-c2ccc(C)cc2)n1	73.6	i	0.97	nt	nt	-0.3	-3.1
COc1ccccc1NC(=O)COC(=O)C1CCN(/C=C/C(=O)C(F)(F)F)CC1	96.4	i	0.95	15.4	103.1	-1.0	7.4
O=c1c2cc(Br)ccc2[nH]c(=S)n1Cc1ccccn1	112.8	i	0.88	-50.0	82.1	-1.4	6.5
N=C1N(/N=C/c2ccccc2)C(=Nc2ccccc2)C(=S)N1c1ccccc1	104.2	i	0.82	-276.2	70.9	-1.5	-2.2
O=C(CN1CCN(S(=O)(=O)c2ccccc2)CC1)Nc1ccc2c(c1)OCO2	78.3	i	1.17	nt	nt	-1.9	-4.8
O=C(O)c1cc2c(s1)-c1ccccc1CC2	105.5	i	1.07	-21.6	117.7	-1.1	-5.2
CN(C)/N=C/c1cc([N+](=O)[O-])ccc1O	100.7	i	0.99	nt	nt	nt	-1.0
Cc1cccc(N(C(=O)c2snc(C(N)=O)c2N)C(C)C(=O)NCC2CCCO2)c1 (configuration not stated)	101.5	i	0.95	nt	nt	nt	-1.4
O=C(c1ccccn1)N1CCN(c2cccc(C(F)(F)F)c2)CC1	98.2	i	0.96	nt	nt	nt	0.9
O=C(Cn1c(-c2cscn2)nc2ccccc21)Nc1ccccc1F	117.7	i	1.02	0.0	104.2	-1.5	0.9
O=C(COC(=O)C1=COCCO1)NC(=O)c1ccc(OC(F)F)cc1	101.6	i	0.88	-80.0	98.9	nt	-2.5
O=C1OCCC1Sc1ncnc2sccc12 (configuration not stated)	105.4	i	0.95	2.7	149.2	-2.2	-9.5
CN(CC(=O)N1CCCCC1)S(=O)(=O)c1cccc2cccnc12	95.2	i	0.89	85.7*	53.7*	-1.0	-1.5
COCCNC(=O)COc1ccccc1C	104.9	i	1.09	nt	nt	-2.5	-0.2
C=CCOCCN(CCOCC=C)C1=NS(=O)(=O)c2ccccc21	110.6	i	0.98	nt	nt	nt	6.4
NC(=O)Cc1nc(-c2ccc(Br)cc2)cs1	103.4	i	0.93	7.7	175.7	-1.2	-11.7
O=C(CSc1ccc2nnc(-c3ccccn3)n2n1)N1CCOCC1	61.6	i	0.94	nt	nt	-4.2	-1.0
CCOC(=O)C(C)(C)C(=O)C(C)(C)C(O)c1ccccn1 (configuration not stated)	100.7	i	0.83	nt	nt	1.3	-5.4
Cc1ccc(OCc2nnc(SC3CCc4ccccc4C3=O)n2C)cc1 (configuration not stated)	105.8	i	0.96	nt	nt	-2.4	-8.3
Cc1cccn2c(CN3CCCC(c4ccccc4)C3)c(C(=O)N3CCOCC3)nc12 (configuration not stated)	92.0	i	0.97	nt	nt	nt	1.9
CC1=C(C(=O)Nc2ccccc2)C(c2ccc(N(C)C)cc2)NC(=O)N1 (configuration not stated)	98.8	i	1.05	nt	nt	-1.1	1.6
CCOC(=O)C1(Cc2ccccc2C(F)(F)F)CCN(C2CCSC2)CC1 (configuration not stated)	88.2	i	0.92	nt	nt	nt	-3.3
CCCCOc1ccc(C(CC(=O)NC)C(=O)O)cc1 (configuration not stated)	100.8	i	1.05	26.0	80.9	-2.6	-2.9
CCN(CC)S(=O)(=O)c1ccc2oc(SCC3CN=C(c4ccc(OC)cc4)S3)nc2c1 (configuration not stated)	101.8	i	0.99	35.7	83.6	-3.5	10.4

Following part:
smiles	RGS16-Gao	HSV replic up	HSV replic up primary fold	Insulin prom inh	Insulin prom inh cell count	GALR2 ag	PKD1 inh
CN(C)c1ccc(/C=[N+](\[O-])C2SC(=S)N(C)C2(C)C)cc1 (configuration not stated)	99.4	nt	nt	-23.3	100.2	-0.5	-1.1
O=C(Cc1n[nH]c(=O)[nH]c1=O)N/N=C/c1cccc(Cl)c1	99.7	i	1.06	nt	nt	nt	nt
CCCSc1nsc(NC(=O)c2cccnc2OCC)n1	101.6	i	0.99	nt	nt	nt	2.4
Cc1cccc(Nc2ccc([N+](=O)[O-])cc2C(=O)O)c1	97.8	i	1.07	nt	nt	-0.5	-2.6
O=C(CCc1c[nH]c2ccccc12)Nc1ccc(S(=O)(=O)Nc2ncccn2)cc1	100.1	i	0.94	nt	nt	nt	-2.2
Clc1ccc(-n2ncc3c(NCc4ccccn4)ncnc32)cc1	101.4	i	0.75	nt	nt	-2.0	6.0
Cc1ccc(-c2cc(C(=O)NCc3ccccn3)no2)cc1	104.6	i	1.06	20.0	104.2	-0.6	-7.5
COc1ccc(C2CC(=O)C=C(NCc3ccccc3)C2)cc1 (configuration not stated)	104.2	i	0.89	nt	nt	nt	nt
COc1cc(NC(=S)N2CCCCC2C)cc(OC)c1OC (configuration not stated)	102.1	i	0.99	-18.2	125.9	nt	-155.1
CN(C)c1ccc(/C=N/n2cnn(Cc3ccccc3Cl)c2=S)cc1	97.3	i	1.1	nt	nt	nt	-9.2
CC(=O)NC(Cc1ccccc1)C(=O)N1CCN(C(=O)c2ccco2)CC1 (configuration not stated)	97.3	i	1.08	-25.0	100.3	1.0	-3.0
O=C1N/C(=C/c2cccs2)C(=O)N1Cc1ccccc1F	104.5	i	0.78	nt	nt	nt	2.6
Cc1ccc(C)n1C(Cc1ccccc1)C(=O)O (configuration not stated)	93.2	i	1	-6.5	84.5	-3.7	1.3
O=[N+]([O-])/C(C(Cl)=C(Cl)Cl)=C(\Sc1ccccc1)N1CCCCC1	105.5	i	1.01	nt	nt	nt	-2.3
CC(Oc1ccc(Br)cc1)C(=O)NCc1ccccn1 (configuration not stated)	107.4	i	0.94	-15.0	103.5	nt	7.7
Cc1c(C=O)c2ccccc2n1CC(=O)NC(C)c1ccccc1 (configuration not stated)	98.3	i	0.95	nt	nt	nt	-2.9
Cc1cccc(NC(=O)NC(C)CCc2ccccc2)c1 (configuration not stated)	74.3	i	1.1	nt	nt	-0.1	-7.1
Cc1ccc(C(=O)N2CCc3ccccc32)cc1	90.7	i	1.14	35.3	96.0	-0.9	-2.0
Cc1cc(C(=O)N/N=C/c2cccc([N+](=O)[O-])c2)c2ccccc2n1	101.6	i	0.92	-12.0	84.1	-1.6	6.7
Cc1cc(C)n(C(=O)CCCn2cc([N+](=O)[O-])cn2)n1	100.0	i	0.95	nt	nt	nt	-1.2
COc1ccc2c(c1)[nH]c1c(=O)n(/N=C/c3ccc(OC)c(COc4ccccn4)c3)cnc12	106.3	i	0.82	42.9	111.4	0.1	-0.2
O=C(/C=C/c1ccccc1)NNC(=O)c1cccs1	100.0	i	0.99	nt	nt	nt	-4.8

Not a hit list (roughly 1.3% active in at least one column).
